HSV augment – increases HSV replication in cells. maximum fold increase. hit rate 0.005% among 220,000. HSV replication augmentation in cells, fold increase;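 active = peak rise of 1.5-fold or more in the series; tested in PC3 cells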;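 also: first round at 10 µM; read as green reporter fluorescence; hits show the peak of a series up to 25 µM; 1 = signal of infected wells without compound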
GALR2 ag – activates the human galanin receptor 2 | activation, %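 (tested at 5 µM)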 | hit rate 0.48% among 140,000 | O43603 | GALR2-expressing cells, agonist activation read-out;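 active = above mean plus 3 SD of all compounds, about 5% in these data, not always enough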;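 also: 0% = vehicle buffer wells and 100% = reference agonist at full effect; tested in CHO reporter cells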
Target sequence (O43603 whole entry, looked up): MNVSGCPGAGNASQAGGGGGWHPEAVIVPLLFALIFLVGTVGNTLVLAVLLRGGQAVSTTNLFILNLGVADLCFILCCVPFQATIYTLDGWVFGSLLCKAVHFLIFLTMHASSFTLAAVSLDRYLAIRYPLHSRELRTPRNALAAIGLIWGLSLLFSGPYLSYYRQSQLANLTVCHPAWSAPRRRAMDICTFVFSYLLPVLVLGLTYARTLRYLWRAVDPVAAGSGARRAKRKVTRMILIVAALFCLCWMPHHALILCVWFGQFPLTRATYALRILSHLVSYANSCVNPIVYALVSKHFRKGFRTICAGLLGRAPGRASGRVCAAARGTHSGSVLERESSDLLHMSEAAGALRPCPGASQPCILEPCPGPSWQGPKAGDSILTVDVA
PKD1 inh – blocks activity of human protein kinase D1 | inhibition, %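 (about 10 µM by stock and volumes)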 | hit rate 0.056% among 200,000 | Q15139 | PKD1 kinase fluorescence polarization assay | AID 797;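 active = inhibition of 50% or more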;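 also: controls were vehicle for no effect and a reference inhibitor for full effect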
INS promoter inh – TRM-6 insulin promoter activity inhibition | TRM-6 cells (human fetal islet line), insulin promoter-eGFP reporter, imaging; reporter expression induced with tamoxifen | hit rate 0.9% among 130,000 | inhibition, % at 2 µM | AID 1273;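 active = inhibition above the mean plus 3 SD, with well images judged a real hit on visual review, cut at about 60% in these data, passing the limit was not always enough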
RGS16-Gao HTS – regulators of human RGS16-Galphao interaction. binding response (% of control), % at 10 µM. O15492+P09471. hit rate 0.38% among 220,000. bead-based flow cytometry RGS16-Galphao binding, fluorescence; actives lie on both sides;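 active = below 25% or above 175%, edge rows of some plates excepted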;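 also: Galphao activated by GDP with aluminum fluoride before binding; 100% = wells without compound and 0% = beads without RGS; some results beyond the cut were filed as inactive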
Target sequence (O15492 whole entry, looked up): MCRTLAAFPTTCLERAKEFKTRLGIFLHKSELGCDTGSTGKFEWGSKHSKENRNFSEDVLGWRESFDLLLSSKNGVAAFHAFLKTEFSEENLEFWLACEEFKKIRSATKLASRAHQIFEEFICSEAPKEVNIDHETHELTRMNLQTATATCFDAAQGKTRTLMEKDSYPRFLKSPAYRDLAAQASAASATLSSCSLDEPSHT
Target sequence (P09471 whole entry, looked up): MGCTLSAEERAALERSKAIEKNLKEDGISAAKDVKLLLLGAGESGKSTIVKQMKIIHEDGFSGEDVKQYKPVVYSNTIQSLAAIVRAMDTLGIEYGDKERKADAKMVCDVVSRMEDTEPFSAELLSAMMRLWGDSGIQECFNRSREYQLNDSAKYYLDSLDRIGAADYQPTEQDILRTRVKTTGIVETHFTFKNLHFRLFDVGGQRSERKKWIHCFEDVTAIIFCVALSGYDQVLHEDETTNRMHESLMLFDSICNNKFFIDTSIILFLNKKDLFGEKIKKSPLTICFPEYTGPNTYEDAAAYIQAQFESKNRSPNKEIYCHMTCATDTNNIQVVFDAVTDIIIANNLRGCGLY
INS promoter inh cell count – also measured in INS promoter inh; calls as there; normalized cell count, %; measured here: cell count, toxicity; reference of the scale not given here;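 cells exposed to compound for 48 h; stained nuclei by imaging scaled within each plate; lower means fewer cells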
HSV augment primary fold – recorded beside HSV augment, whose call it bears; fold increase; compound at 10 µM; measured here: primary screen fold increase 10 uM; tested in PC3 cells;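 GFP signal in the first replicate; 1 = infected wells without compound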
Active calls of the source: *; i = inactive; / = not tested or not shown.

SMILES	HSV augment	HSV augment primary fold	GALR2 ag	PKD1 inh	INS promoter inh	INS promoter inh cell count	RGS16-Gao HTS
Cc1cc(NC(NC(=O)c2ccco2)(C(F)(F)F)C(F)(F)F)no1	i	0.99	8.5	-4	7	81	98
Cc1ccc(CN2CCNC(=O)C2CC(=O)N(Cc2c(C)nn(C)c2C)C2CC2)o1 (stereo not given)	i	1.1	/	-8	/	/	94
NS(=O)(=O)c1ccc(CCNC(=O)COC(=O)/C=C/c2ccccc2Cl)cc1	i	0.89	/	-1	-9	96	99
Cc1ccc(NC(=O)Nc2ncnc3nc[nH]c23)cc1	i	0.97	/	/	/	/	139
Cc1onc(-c2ccccc2Cl)c1NC(=O)NCc1cccs1	i	0.95	/	/	/	/	101
CC1(C)COC(c2cccc(C3=NC(C)(C)CO3)n2)=N1	i	1.1	-0.6	-11	-3	84	92
COC(=O)c1cccc(S(=O)(=O)N2CCC(NC(=O)Nc3cccc(F)c3)CC2)c1	i	0.9	-0.8	6	/	/	101
CCC1(C)Cc2[nH]c(=O)c(C#N)cc2CO1 (stereo not given)	i	1.1	/	-3	/	/	97
CCOC(=O)Cc1csc(NC(=O)Cc2cccs2)n1	i	0.92	-1.4	3	/	/	95
Cc1noc(NS(=O)(=O)c2ccc(N/C=C\C(=O)c3ccc4c(c3)OCO4)cc2)c1C	i	1	-1.6	2	-51	47	94
CCCSc1ncnc2sc(C)c(C)c12	i	1	/	-5	4	98	100
CCOc1ccc(-c2noc(CCC(N)=O)n2)cc1OCC	i	0.88	-1.4	-1	-48	103	106
CCN(CC)S(=O)(=O)c1cccc(C(=O)OCC(=O)Nc2ccc3c(c2)c2ccccc2n3CC)c1	i	0.79	-0.1	-2	-40	78	116
CCCC(=O)Nc1cc(-c2nnc(OC)c3ccccc23)ccc1N1CCOCC1	i	0.99	-0.4	-13	-14	154	/
Cc1ccc(S(=O)(=O)NCC(=O)NC2CCCC2)cc1	i	0.93	-2.2	0	/	/	107

In another format: three of the compounds above
Each structure is followed by: HSV augment, HSV augment primary fold, GALR2 ag, PKD1 inh, INS promoter inh, INS promoter inh cell count, RGS16-Gao HTS
Cc1cc(NC(NC(=O)c2ccco2)(C(F)(F)F)C(F)(F)F)no1
→ i, 0.99, 8.5, -4, 7, 81, 98
Cc1ccc(CN2CCNC(=O)C2CC(=O)N(Cc2c(C)nn(C)c2C)C2CC2)o1 (stereo not given)
→ i, 1.1, /, -8, /, /, 94
NS(=O)(=O)c1ccc(CCNC(=O)COC(=O)/C=C/c2ccccc2Cl)cc1
→ i, 0.89, /, -1, -9, 96, 99

Other results follow:
SMILES	HSV augment	HSV augment primary fold	GALR2 ag	PKD1 inh	INS promoter inh	INS promoter inh cell count	RGS16-Gao HTS
CC1=NN(C(=O)COc2ccccc2)C(O)(c2cccnc2)C1 (stereo not given)	i	0.93	/	5	0	119	103
CCOCCCNC(=O)c1cn(CC(C)C)c(=O)c2cc(OC)c(OC)cc12	/	/	-0.8	-5	/	/	101
Cc1cc(N=Nc2ccccc2C(=O)O)c(C)c(C)c1O	i	1.1	/	/	/	/	100
COc1ccccc1NC(=O)/C(=C/c1cccs1)NC(=O)c1ccco1	i	0.97	/	/	/	/	105
Cc1c(/C=N/NC(=O)C2(O)c3ccccc3-c3ccccc32)cnn1C	i	0.88	-1.6	-12	25	130	45
O=C(O)c1cn(Cc2ccccc2)nc1-c1cccnc1	i	0.9	/	1	-14	133	104
COc1ccc(N2C(=S)NC3N2C(=S)NC3(C)c2ccccc2)cc1 (stereo not given)	i	0.98	/	-3	-22	114	94
Cc1nc2ccc(NC(=O)N3CCOCC3)cc2s1	i	1	-0.7	-2	-14	92	201
CC(C)(Oc1ccc(CCNC(=O)c2ccc(Cl)cc2)cc1)C(=O)O	i	0.79	-0.4	1	33	115	92
O=[N+]([O-])c1ccc(O)c(NC(=S)Nc2ccccc2)c1	i	0.88	0.6	-3	-31	128	112
COC(=O)C(C)N(C#N)c1nc(C)nc(C)n1 (stereo not given)	i	1	-0.8	2	/	/	113
O=c1[nH]nc2n1CCCCC2	i	0.89	-0.2	-2	23	48	102
N=C(N)SCc1nc2ccccn2c1Br	i	0.7	-1.7	0	21	80	98
CCOC(=O)CSCc1nc(-c2ccc(Cl)cc2)oc1C	/	/	-1.0	-5	-15	122	86
S=C(Nc1ccccc1)N(CCN1CCOCC1)Cc1cccc(Cl)c1	i	0.97	/	2	/	/	102
Cc1ccc(C(=O)NN2CC(O)=C(c3nc(-c4cccc([N+](=O)[O-])c4)cs3)C2=N)cc1	i	1	/	-3	/	/	99
C/C(N)=C(/C#N)C(=O)COC(=O)c1cccc(O)c1	i	0.89	/	4	-107	30	105
O=c1ccc(NS(=O)(=O)c2ccccc2)cn1Cc1ccc(Cl)c(Cl)c1	i	0.99	-2.1	-4	-60	77	98
CC1CCN(S(=O)(=O)c2ccc3ncn(CC(=O)N4CCN(C)CC4)c(=O)c3c2)CC1	i	0.96	/	-3	/	/	94
O=C(CCCc1c[nH]c2ccccc12)Nc1ccc(S(=O)(=O)Nc2ncccn2)cc1	i	1.2	/	/	/	/	102
O=C(CN1C(=O)CSc2ccc(S(=O)(=O)N3CCOCC3)cc21)NCCCN1CCc2ccccc2C1	i	1	/	-4	/	/	101
CCc1nnc(NS(=O)(=O)c2ccc(N/C=C(\C=O)c3nc4cc(Cl)ccc4o3)cc2)s1	i	1.2	/	-2	/	/	93
CC(C)(C)c1nc(CN2CCCCC2)cc(CN2CCCCC2)c1O	i	0.97	-0.8	-12	10	90	123
O=C(CCC(=O)N/N=C/c1ccccc1O)NCc1ccccc1	i	1	-1.2	-7	16	104	97
COc1cccc(/C=N/Nc2nc3ccccc3n3cnnc23)c1	i	0.96	-0.6	-10	13	86	141
CC1CCN(C(c2ccc(N(C)C)cc2)c2nnnn2Cc2ccc(F)cc2)CC1 (stereo not given)	i	0.9	-1.4	8	40	91	102
CCN(CC)C(=O)c1ccc(S(=O)(=O)NCc2cccnc2)cc1	i	0.9	-0.8	0	3	126	/
COC(=O)c1ccc(C(=O)OC)c(NC2=NS(=O)(=O)c3ccccc32)c1	i	1.2	-0.6	0	49	23	101
COc1ccc(N2CCN(C(CNC(=O)C(=O)NCc3ccc4c(c3)OCO4)c3ccco3)CC2)cc1 (stereo not given)	i	0.96	/	-3	11	100	87
CC(C)OCCCNC(=O)Cn1ncc2c(=O)oc3ccccc3c21	i	1	-1.2	-2	/	/	102
CCCc1ccc(C(=O)NNc2cccc(C)c2)cc1	i	1	/	/	/	/	100
O=S(=O)(c1cccc2nsnc12)N1CCc2ccccc21	i	1	-4.3	0	/	/	82
Clc1ccc(CSc2cc3c(nn2)-c2ccccc2CC3)cc1	i	0.78	-0.5	-7	-26	103	102
O=C(C1CCC(Cn2c(=S)[nH]c3ccccc3c2=O)CC1)N1CCN(c2ccccn2)CC1 (stereo not given)	i	0.84	/	-5	0	69	210
CN(C)S(=O)(=O)c1ccc(NC(=O)COC(=O)CC2CC3CCC2C3)cc1 (stereo not given)	i	0.96	/	4	/	/	100
Cc1cc(C)c[n+](-c2[nH]c(=O)sc2/C=N/N=C(\N)[S-])c1	i	0.99	/	-2	/	/	89
Nc1nc(-c2cc3ccccc3o2)cs1	i	0.91	/	/	/	/	100
COc1cccc(C(=O)OC2CCN(C)CC2)c1	i	1.1	/	-2	/	/	101
COC(=O)C1=NN[C@H](C(=O)OC)[C@H]1c1ccccc1	i	0.97	-2.1	-4	-39	98	107
CCOc1cc(NC(=O)C2CC2)c(OCC)cc1NC(=O)CCn1nnc2ccccc21	i	1	0.1	0	-40	100	106
CCCC(=O)NC(=S)Nc1ccccc1OC	i	1.1	-2.2	-2	25	92	99
CCCNS(=O)(=O)c1ccc(N2CCCC2=O)c([N+](=O)[O-])c1	i	0.92	-2.0	-11	-8	44	103
COc1cccc(-c2cc(-c3cccnc3)nc(N)c2C#N)c1	i	0.95	/	/	/	/	110
Cc1c(C)c(C)c(CO/N=C/c2cccs2)c(C)c1C	i	1	/	/	/	/	99
CCn1c(SCC(=O)N2CCOCC2)nc2oc3c(Cl)cc(Cl)cc3c(=O)c2c1=O	/	/	0.5	-4	/	/	96
CC(C)(C)c1ccc(CCC(CC(=O)O)CC(=O)O)cc1	i	0.93	/	7	18	108	102
Cc1ccc(/C=C/C2=NN(C)C(=O)CC2)cc1	i	1	/	-4	37	94	110
COc1ccc(Nc2nc(N3CCN(C)CC3)nc3ccccc23)c(OC)c1	i	0.83	/	0	/	/	102
Cc1ccc(CNCC2CCCO2)o1 (stereo not given)	i	1.2	0.1	-4	-39	48	107
COc1ccc(NC(=S)NC(NC(=O)CCl)C(Cl)(Cl)Cl)c([N+](=O)[O-])c1 (stereo not given)	i	0.94	/	6	/	/	96
CCOC(=O)c1ccc(NC(=S)N2CCSC2c2ccc(Br)cc2)cc1 (stereo not given)	i	0.87	17*	0	3	104	107
COc1ccc(-c2cn3c(C)c(C(=O)NC(C)C)sc3n2)cc1	/	/	-2.3	0	0	99	96
CN(Cc1ccccc1)C(=O)NC1CCCCC1	i	0.73	-1.0	1	-305	71	88
CC(C)(C)OC(=O)NCCCCCc1nnc(SCc2ccccc2)o1	i	1	/	/	/	/	99
NCCOc1ccccc1-c1ccccc1	i	1	-1.0	-15	/	/	109
OC1CN=C2CCCc3c2n(c2ccc(Cl)cc32)C1 (stereo not given)	i	1	-2.4	3	-156	127	98
COc1ccc(CCn2c(-c3cccc([N+](=O)[O-])c3)nc3nc4ccccc4nc32)cc1OC	i	1.1	-1.6	-8	/	/	83
CCOC(=O)N1CCN(S(=O)(=O)c2ccc(F)c(C(=O)Nc3ccc(C)c(Cl)c3)c2)CC1	i	0.65	-1.6	-3	11	105	39
C[C@H](O)CC1=C[C@H](O)[C@@H](C)OC1=O	i	1.1	/	6	/	/	99
COc1ccc(-n2cc(CN[C@H]3CCCCNC3=O)c(-c3cccc(F)c3)n2)cc1	i	0.84	/	/	/	/	99

Results in PKD1 inh, HSV augment primary fold and GALR2 ag, for 5 of the compounds above:
| Structure | PKD1 inh | HSV augment primary fold | GALR2 ag |
| --- | --- | --- | --- |
| NCCOc1ccccc1-c1ccccc1 | -15 | 1 | -1.0 |
| OC1CN=C2CCCc3c2n(c2ccc(Cl)cc32)C1 (stereo not given) | 3 | 1 | -2.4 |
| COc1ccc(CCn2c(-c3cccc([N+](=O)[O-])c3)nc3nc4ccccc4nc32)cc1OC | -8 | 1.1 | -1.6 |
| CCOC(=O)N1CCN(S(=O)(=O)c2ccc(F)c(C(=O)Nc3ccc(C)c(Cl)c3)c2)CC1 | -3 | 0.65 | -1.6 |
| C[C@H](O)CC1=C[C@H](O)[C@@H](C)OC1=O | 6 | 1.1 | / |

Continuation:
SMILES	HSV augment	HSV augment primary fold	GALR2 ag	PKD1 inh	INS promoter inh	INS promoter inh cell count	RGS16-Gao HTS
O=C(CCCOc1ccccc1)Nc1ccc(S(=O)(=O)Nc2ccccn2)cc1	i	0.99	/	-11	/	/	106
CCCC(c1nnnn1Cc1ccc(OC)cc1)N1CCC(C(N)=O)CC1 (stereo not given)	i	0.96	-1.1	-4	/	/	97
CCn1cc(/C=N\NC(=O)c2cc(-c3ccccc3OC)nc3ccccc23)c(C)n1	i	1.1	-0.6	-5	7	102	120
O=C1C(NS(=O)(=O)c2cccs2)=C(N2CCN(Cc3ccccc3)CC2)C(=O)c2ccccc21	i	0.95	/	/	/	/	100
S=c1[nH]nc(-c2cc(-c3ccccc3)n[nH]2)n1/N=C/C=C/c1ccco1	i	1.1	/	/	/	/	94
COc1ccccc1NS(=O)(=O)c1ccc(C)c(NC(=O)c2ccc(S(=O)(=O)N3CCCCCC3)cc2)c1	i	1	-1.1	-12	14	112	55
CCOC(=O)C(=Nc1ccccc1)NO	i	1.1	-1.0	-17	/	/	97
O=C(CN1C(=O)COc2ccccc21)N(Cc1ccccc1)Cc1ccccn1	i	1.1	-1.4	-7	/	/	103
CN1CCN2c3ccccc3Cc3ccccc3C2C1 (stereo not given)	i	0.77	-0.4	-8	-271	40	107
COCCn1c(=NC(=O)/C=C/c2ccccc2)sc2cc(NC(C)=O)ccc21	i	0.94	3.3	0	/	/	102
COC(=O)Nc1ccc(S(=O)(=O)Nc2ncccn2)cc1	i	1	/	2	/	/	108
NNC(=O)CN1C(CN2CCOCC2)=Nc2ccc(Br)cc2C1c1ccccc1 (stereo not given)	i	0.9	/	-2	/	/	115
COC(=O)/C=C1\S/C(=N/NC(=O)c2ccc(OC)cc2)NC1=O	i	0.89	/	6	/	/	100
O=C(c1ccc(F)cc1)N1CCCCC(S(=O)(=O)c2ccccc2)C1=O (stereo not given)	i	0.87	-1.4	-3	-119	42	107
CC(C)OC(=O)CC12CN3CN(C1)CC(CC(=O)OC(C)C)(C3)C2=O	i	1	-2.7	6	-245	25	116
C=CCn1c(SCC(=O)NCCc2ccccc2)nnc1C(C)NC(=O)c1cccs1 (stereo not given)	i	0.77	-1.7	-1	-60	153	110
